MT1-MMP act inh – blockers of MT1-MMP proenzyme processing, primary screen, HT1080 RFP-PRO-GFP cells, GFP/RFP fluorescence | GFP/RFP ratio change, % at 20 µM | GFP/RFP ratio fluorescence, overnight; percent of plate control window, DMSO zero | Matrix metalloproteinase-14 (Homo sapiens), P50281 | actives 0.061% (n = 360,000) | AID 651647, 2012;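 active means GFP/RFP ratio change of at least 30% with cell ATP level not reduced by more than half and red fluorescence within 50% of control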; further: strong numbers were not always called active
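Material: RFP-PRO-GFP reporter HT1080 cells. Dosing: single-point 20 µM compound, 1% DMSO. Controls: DMSO and RFP-L50D-GFP cell wells. Timing: cells overnight before dosing, compound overnight, 37 °C, 5% CO2. Measure: GFP/RFP fluorescence ratio.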
Env fusion inh – inhibitors of HIV-1 Env-driven cell-cell fusion, primary screen, HeLa-JRFL effector, CEM21 target cells, luciferase; inhibition, % at 12.3 µM; actives 1.1% (n = 360,000); AID 651610, 2012;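 active means mean replicate inhibition score of at least 50 and every replicate individually at or above 50; inconclusive means only one of the two criteria met; inactive means mean below 50 and not all replicates reaching 50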;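 further: 0% = plate neutral controls and 100% = maraviroc near 300 nM; one replicate is shown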
PABP polyA inh – PABP poly(A) RNA binding inhibitors, primary screen, biochemical, fluorescence polarization, uHTS; Polyadenylate-binding protein 1 (Homo sapiens), P11940; inhibition, % at 35 µM; actives 1% (n = 290,000);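 active means 50% or more with normal probe brightness, or confirmed in later tests; inconclusive means above 50% with abnormal brightness, or retests that disagree; inactive means below 50% or failed in later tests; about a fifth of its hits are not listed in these tables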;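 further: calls also rest on retests at 20 µM and on dose response follow-up; controls were probe without protein and protein plus probe with vehicle; some compounds called inactive have numbers as strong as hits; many hits fall short of the cut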
CSC inhib – cancer stem cell viability inhibitors, primary screen, luminescence. AID 2717, 2010. inhibition, % at 7.5 µM. cancer stem cell-like cells viability. actives 1.1% (n = 300,000);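 active means mean at 75% or more and at least half the replicates too; inconclusive means mean and replicates disagree; tested in HMLE shEcad cells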;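 further: 0% = median of negative and 100% = median of positive control wells; the first replicate is given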
UUG fidelity – modulators of yeast start codon fidelity, primary screen, whole organism, S. cerevisiae, single point, plate reader; S. cerevisiae UUG-firefly luciferase reporter, luminescence/redox ratio; activity score, % at 18.7 µM; AID 602363, 2012; actives 0.13% (n = 350,000);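 active means replicate mean at a twofold rise or more, about +100% in these data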;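 further: firefly luciferase made from a UUG start codon reports start codon fidelity; reporter light over untreated wells divided by growth signal over untreated wells; some hits fall short of that in this replicate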
Rce1 inhib – yeast Rce1p protease inhibitors, primary screen, biochemical, fluorescence, cell-free homogeneous; CAAX prenyl protease 2 (Saccharomyces cerevisiae (strain ATCC 204508 / S288c)), Q03530; yeast membranes, quenched prenylated peptide cleavage fluorescence; calls only; actives 0.27% (n = 290,000); AID 2563, 2010;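 active means fall in fluorescence gain of 50% or more versus controls, with final raw signal at or below 3038400; inconclusive means same 50% fall but final raw signal above 3038400; inactive means fall in fluorescence gain under 50%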;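 further: plate controls were neutral control wells for no effect and wells lacking membranes for full effect; tested at 10 µM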
Target sequence (Q03530 whole entry, looked up): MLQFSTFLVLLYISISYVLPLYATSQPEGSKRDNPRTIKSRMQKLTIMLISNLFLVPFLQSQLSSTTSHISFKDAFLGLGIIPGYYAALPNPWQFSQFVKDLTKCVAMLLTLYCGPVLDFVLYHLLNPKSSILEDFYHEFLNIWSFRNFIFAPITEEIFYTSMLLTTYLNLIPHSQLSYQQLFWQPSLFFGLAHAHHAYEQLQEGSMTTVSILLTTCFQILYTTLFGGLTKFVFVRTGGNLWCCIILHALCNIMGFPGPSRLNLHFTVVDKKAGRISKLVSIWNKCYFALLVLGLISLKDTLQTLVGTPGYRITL
eIF4H FP inh – human eIF4H binding inhibitors, primary screen, translation initiation inhibitor project, biochemical, uHTS, fluorescence polarization | eIF4H fluorescence polarization binding assay | actives 0.94% (n = 290,000) | Eukaryotic translation initiation factor 4H (Homo sapiens), Q15056 | inhibition, % at 35 µM;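 active means 50% or more with normal probe brightness, or confirmed in later tests; inconclusive means above 50% with abnormal brightness, or retests that disagree; inactive means below 50% or failed in later tests; about a fifth of its hits are not listed in these tables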;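 further: calls also rest on retests at 20 µM and on dose response follow-up; 0% = protein and probe with vehicle and 100% = probe without protein; strong numbers were not always called active; many hits fall short of the cut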
eIF4H FP inh retest – further read-out of eIF4H FP inh, marked with its call; inhibition, %; compound at 20 µM; confirmation average;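 mean of two retest wells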
PABP polyA inh retest – also measured in PABP polyA inh; calls as there; inhibition, %; compound at 20 µM; confirmation repeats;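 mean of two retest wells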
MT1-MMP act inh RFP – also measured in MT1-MMP act inh; calls as there; RFP signal change, %; measured here: RFP expression control read;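 0 = vehicle wells; hits needed this value within 50% of zero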
The depositor's hits bear a star; i = inactive; ? = inconclusive; / = no result given; & = joins results of further samples. An excerpt, so the mix of outcomes need not match the whole.

SMILES | MT1-MMP act inh | MT1-MMP act inh RFP | Env fusion inh | PABP polyA inh | CSC inhib | UUG fidelity | Rce1 inhib | eIF4H FP inh | others
O=C(Nc1ccc(Cl)cc1)N1CCN(c2ccccc2)CC1 | 0 | -6 | / | 1 | / | -5 | i | -7
O=C(CCCCC(=O)NC1CCCC1)NC1CCCC1 | 1 | 5 | -6 | 17 | -8 | 1 | i | -2
COc1ccc(N2CCN(CCCNC(=O)C3CCN(S(=O)(=O)N4CCOCC4)CC3)CC2)cc1 | 4 | 1 | 4 | -14 | 9 | 2 | i | -3
CC1O[C@@H](O[C@H](C)CC/C=C/C(=O)O)C(O)C[C@H]1O (stereo partly specified) | 0 | 2 | 0 | / | -8 | -8 | i | /
O=C(OCc1ccccc1)Oc1cncc(C(=O)O)c1 | 0 | 0 | 13 | 3 | -10 | -10 | i | 4
Nc1nonc1/C(=N/O)N1CCN(CCO)CC1 | 0 | 5 | -11 | -2 | 3 | -15 | i | -3
CCN1CCN(S(=O)(=O)c2ccc(Cl)c(C(=O)Nc3ccccc3N3CCOCC3)c2)CC1 | -1 | 2 | -6 | / | 11 | -12 | i | /
NS(=O)(=O)c1ccc(NC(=S)NCc2ccc(F)cc2)cc1 | 3 | -2 | 5 | -8 | -8 | / | i | 11
Cc1ccc(N(C(=O)c2ccc(S(=O)(=O)N3CCCC3)cc2)C2C=CS(=O)(=O)C2)cc1 (stereo unspecified) | -4 | 1 | -35 | -4 | -6 | -5 | i | -13
O=c1[nH]nnc2c1ncn2C1OC(CO)C(O)C1O (stereo unspecified) | -5 | 4 | ? | / | / | 3 | / | /
Cc1ccc(C(C(=O)NC2CCCC2)N(C(=O)c2csnn2)C2CC2)cc1 (stereo unspecified) | -1 | -1 | 1 | 7 | 4 | -10 | i | 3
Cc1ccccc1N1CC(=O)Nc2c(oc3nc(-c4ccccc4)cc(C)c23)C1=O | 10 | -7 | 9 | 4 | 20 | / | i | 9

Taken from the entries so far for reference:
SMILES | MT1-MMP act inh | MT1-MMP act inh RFP | Env fusion inh | PABP polyA inh | CSC inhib | UUG fidelity | Rce1 inhib | eIF4H FP inh | others
O=C(CCCCC(=O)NC1CCCC1)NC1CCCC1 | 1 | 5 | -6 | 17 | -8 | 1 | i | -2
COc1ccc(N2CCN(CCCNC(=O)C3CCN(S(=O)(=O)N4CCOCC4)CC3)CC2)cc1 | 4 | 1 | 4 | -14 | 9 | 2 | i | -3

Returning to the listing with the 6 entries that preceded the break.
SMILES | MT1-MMP act inh | MT1-MMP act inh RFP | Env fusion inh | PABP polyA inh | CSC inhib | UUG fidelity | Rce1 inhib | eIF4H FP inh | others
CCN1CCN(S(=O)(=O)c2ccc(Cl)c(C(=O)Nc3ccccc3N3CCOCC3)c2)CC1 | -1 | 2 | -6 | / | 11 | -12 | i | /
NS(=O)(=O)c1ccc(NC(=S)NCc2ccc(F)cc2)cc1 | 3 | -2 | 5 | -8 | -8 | / | i | 11
Cc1ccc(N(C(=O)c2ccc(S(=O)(=O)N3CCCC3)cc2)C2C=CS(=O)(=O)C2)cc1 (stereo unspecified) | -4 | 1 | -35 | -4 | -6 | -5 | i | -13
O=c1[nH]nnc2c1ncn2C1OC(CO)C(O)C1O (stereo unspecified) | -5 | 4 | ? | / | / | 3 | / | /
Cc1ccc(C(C(=O)NC2CCCC2)N(C(=O)c2csnn2)C2CC2)cc1 (stereo unspecified) | -1 | -1 | 1 | 7 | 4 | -10 | i | 3
Cc1ccccc1N1CC(=O)Nc2c(oc3nc(-c4ccccc4)cc(C)c23)C1=O | 10 | -7 | 9 | 4 | 20 | / | i | 9
Cc1ccc(OCC(=O)N(C)CC(=O)Nc2ccc(F)cc2)c([N+](=O)[O-])n1 | 4 | 5 | 4 | 0 | 44 | -20 | i | -13
COc1ccc(C(=O)Nc2nc3ccccc3[nH]2)cc1S(=O)(=O)N1CCCC1 | 5 | 4 | / | 3 | -5 | -25 | i | 1
Cc1onc(C(N)=O)c1C(=O)Nc1ncc(C(F)(F)F)cc1Cl | -7 | -1 | 4 | -14 | 2 | / | i | -7
CCCCC(c1nnnn1Cc1ccco1)N1CCN(c2nc3ccccc3s2)CC1 (stereo unspecified) | -8 | -7 | -91 | -8 | -6 | -15 | / | -1
FC(F)(F)c1ccc(CSc2ccccn2)cc1 | 8 | -2 | 0 | -1 | -5 | -9 | i | -2
COc1cccc(NC(=O)C2CCCC2)c1 | -1 | 0 | -29 | / | -8 | -14 | i | /
CN(CC(=O)NC1CCCCCCC1)S(=O)(=O)c1cnc[nH]1 | 2 | 0 | -7 | 0 | -15 | / | i | -9
O=C(c1ccc(F)cc1)n1c(=S)nc2ccccn21 | 4 | 6 | -101 | -14 | -9 | / | i | -10
CN1C(=O)N(S(=O)(=O)c2ccc(F)c(F)c2F)C(=O)C1(C)C | 5 | 5 | 4 | 9 | 3 | -2 | i | 8
O=C(NCc1cccc(Cl)c1)c1ccc(N2CC3CC(C2)c2cccc(=O)n2C3)c(NC(=O)c2cccnc2)c1 (stereo unspecified) | -2 | -2 | 0 | -6 | -3 | -4 | i | -7
Cc1ccc(NC(=O)COc2ncnc3sccc23)cc1S(=O)(=O)N(C)C | 1 | 0 | 1 | 2 | -13 | / | i | 3
COc1ccc(/C=C/C(=O)OCC(=O)Nc2cc3oc4ccccc4c3cc2OC)cc1 | / | / | -6 | -8 | -5 | / | i | 14

Retrieved by structure from the list above (two):
SMILES | MT1-MMP act inh | MT1-MMP act inh RFP | Env fusion inh | PABP polyA inh | CSC inhib | UUG fidelity | Rce1 inhib | eIF4H FP inh | others
CN1C(=O)N(S(=O)(=O)c2ccc(F)c(F)c2F)C(=O)C1(C)C | 5 | 5 | 4 | 9 | 3 | -2 | i | 8
Cc1ccc(NC(=O)COc2ncnc3sccc23)cc1S(=O)(=O)N(C)C | 1 | 0 | 1 | 2 | -13 | / | i | 3

Other compounds follow.
SMILES | MT1-MMP act inh | MT1-MMP act inh RFP | Env fusion inh | PABP polyA inh | CSC inhib | UUG fidelity | Rce1 inhib | eIF4H FP inh | others
CC(C)Nc1nc(NC(C)(C)C)nc(Oc2ccc(=O)n(-c3ccccc3)n2)n1 | -1 | 0 | / | -8 | -9 | / | i | -5
CCNC(=S)N(CCc1ccc(OC)c(OC)c1)Cc1cc2cc(OC)ccc2[nH]c1=O | 1 | 3 | 2 | 10 | 0 | -17 | i | -8
COc1ccc(-c2nn(C)c(=O)[nH]2)cc1 | 1 | 3 | -63 | 5 | 7 | / | i | -6
COc1ccc(CN2CCNC(=O)C2CC(=O)N(C)CC2CCOCC2)cc1OC (stereo unspecified) | -4 | 5 | 1 | 14 | 0 | -2 | i | 22
Cc1ccc2c(c1)N(CCC(=O)NC1CC1)C(=O)C(C)O2 (stereo unspecified) | 1 | 3 | -10 | -2 | -3 | -16 | i | 15
C=CCOC(Cn1ccnc1)c1ccc(Cl)cc1Cl (stereo unspecified) | 1 | 0 | / | / | -1 | -32 | / | /
CC(C)(C)c1ccc2c(c1)N(CC(=O)O)C(=O)CO2 | -2 | 1 | -36 | 11 | -4 | -13 | i | 3
CCOc1cc(NC(=O)C2CC2)c(OCC)cc1NC(=O)c1ccccc1OCC | 3 | -5 | 3 | -12 | 40 | -7 | / | -1
COc1ccc(-c2ccc3c(c2)C2CC3CCN2Cc2ccc(OC(F)(F)F)cc2)cc1 (stereo unspecified) | 0 | -9 | 5 | / | / | -3 | / | /
NC(=N\N=Cc1ccccc1)/C(N)=N/N=Cc1ccccc1 | 3 | 2 | -97 | / | / | -22 | / | /
O=c1[nH]c(/C=C\c2ccc(O)c(O)c2)nc(O)c1[N+](=O)[O-] | 7 | 5 | 10 | 41* | / | 9 | i | 50* | eIF4H FP inh retest=95*;PABP polyA inh retest=52*
O=C(NCc1ccc(OC(F)(F)F)cc1)C1CC(c2ccccc2[N+](=O)[O-])=NO1 (stereo unspecified) | 1 | 2 | 21 | 3 | -5 | 14 | i | 2
CC(=O)c1cccc(CN2CCN(Cc3ccc(C)cc3)C(CCO)C2)c1 (stereo unspecified) | 2 | 3 | 8 | 5 | 7 | -8 | i | 0
CN1CC(c2ccccc2Cl)C2(COc3ccccc3C2=O)C12C(=O)Nc1ccccc12 (stereo unspecified) | -23 | -17 | 78* | -4 | 41 | -3 | i | 7
CCN(CC(=O)Nc1ccc(OC)c(Cl)c1)CC(=O)NC(C)C | / | / | 7 | -4 | 2 | -3 | i | -3
COc1ccc(CN(C)CCc2ccccn2)cc1OC | -1 | 4 | / | -7 | 12 | 1&-12 | i | -17
CN(C)c1ccc(NC(=O)c2cccc(N3C(=O)CCC3=O)c2)cc1 | 7 | 4 | / | 9 | 2 | -3 | i | -2
O=C(NC(c1ccc(-c2ccccc2)cc1)c1cnccn1)C1CCN(Cc2ccc(Oc3ccccc3)cc2)CC1 (stereo unspecified) | 4 | -2 | 8 | / | / | -1 | / | /
CN(C)c1nc(Oc2ccc(OCCOc3ccccc3)nn2)nc(N(C)C)n1 | 2 | 2 | 9 | -4 | -5 | -4 | i | -3
COc1ccc(CCNC(=O)c2ccc(SC)cc2OC)cc1 | 1 | 0 | 14 | -7 | -4 | / | / | -13
Cc1ccc(NC(=O)C(CC(C)C)NC(N)=O)cc1 (stereo unspecified) | 1 | 0 | 16 | -6 | -9 | / | i | -2
N=C1c2ccccc2CN1c1ccc(S(=O)(=O)N2CCCCC2)cc1 | -19 | 2 | 2 | -2 | -9 | / | i | ?
Cc1ccc(-n2nc(-c3ccco3)cc2C(=O)O)c(C)c1 | / | / | -3 | -13 | / | / | i | 78 | eIF4H FP inh retest=9;PABP polyA inh retest=12
COC(=O)c1ccc(C23CC4(C2)[C@H](CN(C)[C@@H]4c2ccccc2)C3c2ccc(Cl)nc2)cc1 (stereo partly specified) | 4 | -5 | -2 | -4 | -1 | -7 | i | -5
CCC1CCCCN1C(=O)c1ccc2nc(Cc3ccc(OC)cc3)oc2c1 (stereo unspecified) | 1 | -3 | -47 | 10 | -11 | 5 | i | -8
Cc1ccc(C(=O)N2N=C(c3ccc(Br)cc3)CC2c2ccccc2O)cc1 (stereo unspecified) | -2 | -8 | 12 | 0 | 112* | -28 | i | -10
CCC(C(=O)Nc1ccc([N+](=O)[O-])cn1)c1ccccc1 (stereo unspecified) | 3 | 1 | 15 | -4 | -18 | -4 | i | -9
CN(Cc1ccccc1)S(=O)(=O)c1cccc2nsnc12 | -4 | 1 | -7 | 2 | -4 | / | i | 0
COC(=O)[C@]1(C)CCC[C@@]2(C)C3CC[C@@]4(C)C[C@]3(CC[C@H]12)C[C@H]4O (stereo partly specified) | -3 | -6 | 7 | -4 | -13 | -11 | i | 1
CC1CC(C)(C)CC2(C1)NC(=O)N(CC(=O)NCc1ccccc1F)C2=O (stereo unspecified) | 1 | -6 | -1 | / | -3 | -9 | i | /

Compound activity deposited in PubChem BioAssay by several laboratories.
